# Source: PubChem (Broad Institute)
# DUX4 inh = blocks DUX4-driven transcriptional activation; AID 1224904; activity change, negative = inhibition, % (concentration not given with the values); 293T-iDUX4 ZSCAN4-Gaussia luciferase reporter, 24 h; stronger effect = lower value; 37,000 tested, 0.8% active;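 active means -10% or lower and over 25 points stronger than a control reporter; inconclusive means -10% or lower with a smaller gap; inactive means above -10%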;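 further: 0% = median of neutral control wells and -100% = median of positive control wells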
# DUX4 inh difference = second read-out of DUX4 inh, no call of its own (marks repeat the call); Gaussia minus Italica difference, %; measured here: selective DUX4 reporter inhibition;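 worked out from the two reporters; negative = selective loss of the DUX4 reporter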
# DUX4 inh control = second read-out of DUX4 inh, no call of its own (marks repeat the call); activity change, negative = inhibition, %; measured here: Italica tet-on control reporter;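 0 = neutral control and -100 = positive control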
# Active calls of the source: *; ? = inconclusive; . = no result given; ! = not confirmed by another sample. Some of the compounds tested. The share of hits here may be higher or lower than overall.
DUX4 inh difference | DUX4 inh | DUX4 inh control | mol
3 | -3 | -6.1 | CC(C)CC#Cc1ccc([C@@H]2[C@@H](CO)N3C(=O)CN(C(=O)NC4CCCCC4)C[C@H]23)cc1
-3 | -1 | 2.5 | CNC[C@@H]1OCCCC[C@@H](C)Oc2ccc(NC(=O)c3ccncc3)cc2C(=O)N([C@@H](C)CO)C[C@H]1C
0 | 11 | 11 | CCS(=O)(=O)N1CCCCN2[C@H](C1)[C@H](c1ccc(C#Cc3ccccn3)cc1)[C@@H]2CO
2 | 1 | -0.5 | CC(C)C#Cc1ccc([C@@H]2[C@@H](C#N)N(C(=O)CN(C)C)[C@@H]2CO)cc1
3 | 0 | -2.4 | O=C(NCC1CC1)[C@H]1[C@H](CO)[C@H]2Cn3c(ccc(C4=CCCCC4)c3=O)[C@@H]1N2
2 | 4 | 2.3 | CC(=O)N1[C@H](CO)[C@H](c2ccccc2)C12CN(C(=O)c1ccc3c(c1)OCO3)C2
6 | 6 | 0.2 | C[C@H](CO)N1C[C@H](C)[C@H](CN(C)S(=O)(=O)c2ccc3c(c2)OCCCO3)OCc2cn(nn2)CCCC1=O
-7 | -5 | 1.2 | COc1ccc(NC(=O)N(C)C[C@@H]2OCCCC[C@H](C)Oc3ccc(NS(=O)(=O)c4cccs4)cc3C(=O)N([C@@H](C)CO)C[C@@H]2C)cc1
-30* | -34*! | -4.2* | c1cncc(-c2ccc(C3[C@@H]4CN(Cc5ccc6c(c5)OCO6)C[C@H]3N4)cc2)c1 (some centres not stated)
0 | -2 | -2.2 | O=C(Cc1ccncc1)NCC[C@H]1CC[C@@H](NC(=O)C2CCOCC2)[C@@H](CO)O1
0 | -2 | -1.7 | COc1ccc(C#Cc2ccc([C@H]3[C@@H](CO)N4C(=O)CN(C(=O)Nc5ccccc5F)C[C@H]34)cc2)cc1
. | ? | . | O=C(NCC(F)(F)F)[C@H]1[C@H](CO)[C@H]2Cn3c(cccc3=O)[C@@H]1N2C(=O)C1CCCC1
-2 | -1 | 1.0 | CC(C)[C@@H]1CC=CC[C@H](C)Oc2ccccc2C(=O)N(C)[C@@H](C(C)C)C(=O)N1 (mixture of isomers)
5 | 5 | -0.6 | CN1C(=O)c2cc(NC(=O)C3CCOCC3)ccc2OC[C@@H]2O[C@@H](CC(=O)NCC3CCCCC3)CC[C@@H]21
3 | 6 | 2.7 | COc1cccc(-c2ccc([C@H]3[C@@H](CO)N4C(=O)CN(C(=O)CN5CCOCC5)C[C@@H]34)cc2)c1
-10 | 16 | 26 | COc1ccc2c3c(n(C)c2c1)[C@H](CO)N(C)CC31CCN(C(=O)C2CCC2)CC1
5 | 9 | 4.2 | CO[C@@H]1CN(C)C(=O)c2cc(NS(C)(=O)=O)ccc2OC[C@@H](C)N(C(=O)CC2CC2)C[C@@H]1C
1 | -1 | -1.7 | COCCNC(=O)C[C@H]1CC[C@H]2[C@@H](COc3ccc(NC(=O)C4CCOCC4)cc3C(=O)N2C)O1
-5 | -5 | 0.3 | CCC(=O)NC[C@@H]1[C@H](c2ccc(C3=CCCC3)cc2)[C@@H](CO)N1C(C)=O
1 | 3 | 1.4 | O=C(NC1CCC1)[C@@H]1[C@@H](CO)[C@@H]2Cn3c(ccc(-c4ccc(F)cc4)c3=O)[C@@H]2N1Cc1ccccn1
-5 | -8 | -3.9 | Cc1ccc(S(=O)(=O)N2C[C@@H](O)COC[C@@H]3O[C@@H](CC(=O)NCC4CCCCC4)CC[C@H]32)cc1
. | ? | . | O=C(C[C@H]1CC[C@@H]2[C@H](COC[C@H](O)CN2Cc2nccs2)O1)NCc1ccc(Oc2ccccc2)cc1
-2 | -1 | 1.4 | COc1ccc(NC(=O)Nc2ccc3c(c2)C(=O)N([C@H](C)CO)C[C@H](C)[C@@H](CN(C)Cc2ccncc2)OCCCC[C@@H](C)O3)cc1
5 | 7 | 2.2 | COCC(=O)Nc1ccc2c(c1)[C@@H]1C[C@H](CC(=O)NCc3cccnc3)O[C@@H](CO)[C@@H]1O2
-1 | -2 | -0.6 | CC(=O)N1[C@H](CO)[C@H](c2ccc(C3=CCCCC3)cc2)[C@@H]1CNC(=O)CN(C)C
11 | 13 | 2.4 | COc1ccc(NC(=O)N2CC(=O)N3[C@H](CO)[C@H](c4ccc(Br)cc4)[C@H]3C2)cc1
3 | 1 | -2.3 | O=C(CCN1CCCCC1)N[C@H]1CC[C@@H](CCNC(=O)c2cc(Cl)cc(Cl)c2)O[C@H]1CO
0 | 8 | 8.4 | CN(C)CC(=O)Nc1ccc2c(c1)[C@@H]1C[C@H](CC(=O)N3CCCCC3)O[C@@H](CO)[C@@H]1O2
0 | 1 | 0.9 | CO[C@H]1CN(C)C(=O)c2ccc(NC(=O)c3ccccc3)cc2OC[C@@H](C)N(C(=O)C2CC2)C[C@@H]1C
0 | 4 | 3.7 | C/C=C/c1ccc([C@@H]2[C@@H](CO)N(C(=O)C3CC3)[C@H]2CN(C)C(=O)CC)cc1
-9 | -7 | 1.9 | O=C(C1CCC1)N1CC2(C1)[C@H](c1ccccc1)[C@@H](CO)N2CCC(F)(F)F
1 | 0 | -0.2 | C/C=C/c1ccc([C@H]2[C@@H](CO)N(C(C)=O)[C@H]2CNC(=O)c2ccccc2)cc1
3 | 10 | 6.8 | COC(=O)c1ccc(CN2CC(=O)N3[C@H](CO)[C@@H](c4ccc(Br)cc4)[C@@H]3C2)cc1
. | ? | . | COCC(=O)N1CC[C@@H]2[C@H](CO)Nc3ccc(-c4cccc(C#N)c4)cc3[C@@H]21
-6 | -5 | 0.9 | C[C@H]1CC=CC[C@H](c2ccc(F)cc2)NC(=O)[C@@H](Cc2ccccc2)N(C)C(=O)c2ccccc2O1 (mixture of isomers)
-5 | -6 | -1.3 | CO[C@H](CN(C)C(=O)c1cnccn1)[C@H](C)CN([C@@H](C)CO)S(=O)(=O)c1ccccc1
0 | -1 | -1.0 | C/C=C/c1ccc([C@H]2[C@@H](CO)N(C(=O)COC)[C@@H]2CNC(=O)C2CC2)cc1
-4 | -3 | 1.0 | COC(=O)C[C@H]1CC[C@@H]2[C@@H](COc3ccc(NC(=O)c4cscn4)cc3C(=O)N2C)O1
-2 | 0 | 1.3 | C[C@@H]1CCCCO[C@@H](CN(C)C(=O)c2ccncc2)[C@H](C)CN([C@H](C)CO)C(=O)c2cc(NC(=O)CCC(F)(F)F)ccc2O1
2 | 5 | 3.2 | COc1ccc(S(=O)(=O)Nc2ccc3c(c2)C(=O)N([C@@H](C)CO)C[C@H](C)[C@H](CN(C)C(=O)CCC(F)(F)F)OCCCC[C@@H](C)O3)cc1

# One compound at a time, from the list above:
# `COCC(=O)Nc1ccc2c(c1)[C@@H]1C[C@H](CC(=O)NCc3cccnc3)O[C@@H](CO)[C@@H]1O2` in the list: DUX4 inh difference: 5; DUX4 inh: 7; DUX4 inh control: 2.2
# `COc1ccc(NC(=O)N2CC(=O)N3[C@H](CO)[C@H](c4ccc(Br)cc4)[C@H]3C2)cc1` in the list: DUX4 inh difference: 11; DUX4 inh: 13; DUX4 inh control: 2.4
# `CC(=O)N1[C@H](CO)[C@H](c2ccc(C3=CCCCC3)cc2)[C@@H]1CNC(=O)CN(C)C` in the list: DUX4 inh difference: -1; DUX4 inh: -2; DUX4 inh control: -0.6

# New compounds follow
DUX4 inh difference | DUX4 inh | DUX4 inh control | mol
. | ? | . | CO[C@@H]1CN(C)C(=O)c2cc(NS(=O)(=O)c3cn(C)cn3)ccc2OC[C@@H](C)N(Cc2cccc(C(F)(F)F)c2)C[C@H]1C
4 | 1 | -2.6 | C/C=C/c1ccc([C@@H]2[C@@H](CO)N(C(=O)C3CC3)[C@H]2CN(C)C(C)=O)cc1
8 | 8 | 0.0 | C/C=C/c1ccc([C@@H]2[C@H]3CN(C(=O)c4ccc(F)cc4)CC(=O)N3[C@H]2CO)cc1
1 | 5 | 3.8 | CCCNC(=O)C[C@H]1C[C@@H]2c3cc(NC(=O)Nc4ccc(F)cc4)ccc3O[C@@H]2[C@H](CO)O1
1 | 3 | 2.3 | CNC(=O)C[C@@H]1CC[C@H]2[C@@H](COc3ccc(NS(=O)(=O)c4ccc(F)cc4)cc3C(=O)N2C)O1
2 | 2 | -0.7 | CO[C@H](CN(C)Cc1ccc2c(c1)OCO2)[C@H](C)CN(C(=O)c1ccccc1)[C@@H](C)CO
-7 | 2 | 9.5 | CCC(=O)Nc1ccc2c(c1)OC[C@H](C)N(Cc1ccccc1F)C[C@H](C)[C@H](OC)CN(C)C2=O
. | ? | . | COc1ccc2c3c([nH]c2c1)[C@@H](CO)N(Cc1cccc(Cl)c1)CC31CN(C(C)=O)C1
-3 | 3 | 5.6 | CCN1[C@@H]2c3ccc(C4=CCCC4)c(=O)n3C[C@@H]2[C@@H](CO)[C@@H]1C(=O)NCCCN(C)C
9 | 13 | 3.9 | O=C(c1ccccc1F)N1CC[C@@H]2[C@@H](CO)Nc3ccc(Br)cc3[C@@H]21
-1 | -1 | -0.2 | CCC(=O)N(C)C[C@H]1Oc2cc(C#Cc3ccncc3)ccc2S(=O)(=O)N([C@H](C)CO)C[C@H]1C
0 | -5 | -4.2 | COCC(=O)Nc1ccc2c(c1)C(=O)N(C)[C@@H]1CC[C@H](CC(=O)Nc3cn(C)nc3C)O[C@@H]1CO2
0 | -3 | -3.1 | Cc1ccc(S(=O)(=O)N(C)C[C@H]2OCCCC[C@@H](C)Oc3ccc(NC(=O)c4ccncc4)cc3C(=O)N([C@@H](C)CO)C[C@@H]2C)cc1
5 | 4 | -1.4 | CCCNC(=O)N1C[C@@H]2[C@H](c3ccccc31)[C@@H](CO)N2Cc1ccc(F)cc1
-13 | 2 | 15 | CS(=O)(=O)N1CC(=O)N2[C@H](CO)[C@@H](c3ccc(C#CCC4CCCC4)cc3)[C@@H]2C1
4 | -3 | -7.2 | O=C(Nc1ccccc1F)N1[C@@H](CO)[C@@H]2c3ccccc3NC[C@@H]21
0 | 2 | 2.3 | Cc1noc(C)c1S(=O)(=O)N(C)C[C@H]1OCCCC[C@H](C)Oc2ccc(NS(=O)(=O)c3cn(C)cn3)cc2C(=O)N([C@@H](C)CO)C[C@@H]1C
-3 | -3 | 0.6 | COc1cccc(S(=O)(=O)Nc2ccc3c(c2)[C@H]2C[C@@H](CC(=O)NCc4cccc(F)c4)O[C@H](CO)[C@H]2O3)c1
-5 | 2 | 7.2 | O=C(C[C@@H]1CC[C@H](NS(=O)(=O)c2cccc(F)c2)[C@@H](CO)O1)NCc1ccc2c(c1)OCO2
. | ? | . | OC[C@H]1[C@@H](c2ccc(-c3ccccc3F)cc2)[C@@H]2CN(Cc3ccncc3)CCCCN12

# Exported with two lines to a compound: 3 of the compounds above.
# Order of results – DUX4 inh difference, DUX4 inh, DUX4 inh control
- CCC(=O)Nc1ccc2c(c1)OC[C@H](C)N(Cc1ccccc1F)C[C@H](C)[C@H](OC)CN(C)C2=O
→ -7, 2, 9.5
- COc1ccc2c3c([nH]c2c1)[C@@H](CO)N(Cc1cccc(Cl)c1)CC31CN(C(C)=O)C1
→ ., ?, .
- CCN1[C@@H]2c3ccc(C4=CCCC4)c(=O)n3C[C@@H]2[C@@H](CO)[C@@H]1C(=O)NCCCN(C)C
→ -3, 3, 5.6

# (listing goes on)
DUX4 inh difference | DUX4 inh | DUX4 inh control | mol
-5 | -9 | -3.6 | CO[C@@H]1CN(C)C(=O)c2cc(NC(=O)NC(C)C)ccc2OC[C@@H](C)N(Cc2ccccc2)C[C@H]1C
0 | 0 | 0.7 | CNC[C@@H]1Oc2ccc(NS(=O)(=O)c3c(C)noc3C)cc2CC(=O)N([C@H](C)CO)C[C@@H]1C
-11 | 2 | 13 | CCCN1[C@@H]2Cn3c(ccc(-c4ccccc4F)c3=O)[C@H]1[C@@H](C(=O)NCc1ccccn1)[C@@H]2CO
1 | 0 | -0.6 | COCC(=O)N1[C@@H]2c3ccc(-c4ccccc4)c(=O)n3C[C@@H]2[C@@H](CO)[C@@H]1C(=O)Nc1ccccc1
4 | 4 | 0.8 | O=C(C[C@@H]1CC[C@@H](NS(=O)(=O)c2ccc(F)cc2)[C@@H](CO)O1)NCCc1ccncc1
. | ? | . | COc1ccc(-c2ccccc2[C@H]2[C@@H](C#N)N(C(=O)C3CCC3)[C@H]2CO)cc1
3 | 10 | 6.4 | O=C(C[C@@H]1CC[C@@H]2[C@H](COC[C@H](O)CN2C(=O)Nc2ccc(F)cc2)O1)NCCCN1CCOCC1
. | ? | . | Cc1ccccc1S(=O)(=O)N1CCCCN2[C@H](CO)[C@@H](c3ccc(C#CCN(C)C)cc3)[C@@H]2C1
8 | 4 | -3.9 | COc1ccc(S(=O)(=O)N2CC[C@@H]3[C@H](CO)Nc4ccc(Br)cc4[C@@H]32)cc1
-12 | -4 | 7.7 | O=C(Nc1ccc(F)cc1)N1C[C@H]2[C@@H](c3ccccc31)[C@H](CO)N2C(=O)c1ccccc1F
3 | 3 | 0.5 | COc1ccccc1-c1ccc2c(c1)[C@H]1[C@H](CCN1C(=O)CN1CCOCC1)[C@H](CO)N2C
1 | 0 | -0.7 | CCC(=O)N[C@@H]1C=C[C@@H](CC(=O)NCc2cc(F)cc(F)c2)O[C@@H]1CO
. | ? | . | COc1ccc(CN2C[C@@H](O)COC[C@@H]3O[C@@H](CC(=O)N4CCc5ccccc5C4)CC[C@H]32)cc1
-4 | -1 | 3.6 | CCCC#Cc1cnc2c(c1)C(=O)N([C@@H](C)CO)C[C@@H](C)[C@@H](CN(C)Cc1ccccc1F)O2
2 | 1 | -1.0 | C/C=C/c1ccc([C@H]2[C@@H](CO)N(C(=O)Cc3ccccn3)[C@H]2C#N)cc1
8 | 12 | 4.9 | CN(C)C(=O)c1cccc(-c2ccc([C@@H]3[C@H]4CN(C(=O)C5CCC5)CC(=O)N4[C@H]3CO)cc2)c1
. | ? | . | O=S(=O)(c1ccccc1F)N1C[C@@H]2N[C@H](C1)C2c1ccc(-c2cccnc2)cc1 (some centres not stated)
